High-throughput results from PubChem.
Ecoli rRNA inh: inhibits bacterial ribosomal RNA function over humanized ribosomes; GFP signal change (wild-type ribosome), % (test concentration not listed); 1.6% of 350,000 active; E. coli WT GFP vs humanized-ribosome RFP mutants, fluorescence, 24 h; stronger effect = lower value; DMSO median 0, no signal -100;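 active = significant combined selectivity score with lowered wild-type GFP, culture density cut under 30%, mutant RFP and density less affected; inactive = any of these conditions unmet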; also: one replicate is shown; some compounds called inactive have numbers as strong as hits
T cruzi inh: T. cruzi replication inhibition; 1.4% of 300,000 active; inhibition, % (no concentration beside the values); AID 1885; T. cruzi beta-gal in NIH3T3, luminescence, 90 h;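 active = mean inhibition across valid replicates above about 55%, limit read from the data; inconclusive = mean below that limit but half or more replicates reach it; inactive = mean below it, under half of replicates reach it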;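 also: signal also drops with host cell toxicity which is not excluded here; 0% = plate median of DMSO wells and 100% = zero luminescence signal; higher percent means less beta-gal luminescence so fewer parasites; stock transfer was 50 nL into about 50 µL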
A1 inh: inhibitors of the anti-apoptotic protein A1, read as caspase activation. MEF A1-2A-BIM cells, Caspase-Glo 3/7 luminescence, 3 h; percent of clofoctol response, vehicle zero. caspase activation, % (test concentration not listed). 0.066% of 330,000 active. AID 2462;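 active = over half of replicate activation scores above 10%, or exactly half above 10 with the replicate mean above 10; inconclusive = replicate mean below 10 yet half the replicates above 10; inactive = over half of replicates below 10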;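 also: wells of about 30 µL received 50 nL stock; many hits fall short of the cut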
RanGTP-Imp inh: inhibitors of RanGTP-importin-beta interaction, primary screen, biochemical, FRET, CFP-Ran, YFP-importin-beta, homogeneous; cell-free CFP-Ran/YFP-importin-beta FRET ratio; inhibition, % (concentration not given with the values); 1.1% of 300,000 active; AID 2216;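 active = most replicates above 15%; inconclusive = exactly half above 15%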;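 also: 0% = DMSO wells and 100% = Ran loaded with GDP instead of GTP; wells of about 40 µL received 100 nL stock; the first replicate is given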
Calb FLC: affects C. albicans growth with fluconazole | growth inhibition, % (no concentration beside the values) | C. albicans CaCi-2 (fluconazole-resistant clinical isolate) + fluconazole, Alamar Blue growth, 48 h | 0.57% of 300,000 active;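 active = most replicates above 75%; inconclusive = exactly half above 75%; inactive = most below 75%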;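 also: all wells also contain fluconazole at 8 µg/ml as a sub-toxic cotreatment; 0% = median of DMSO wells and 100% = median of geldanamycin control wells; wells of about 8 µL received 7.5 nL stock; the first replicate is given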
Beta cell apopt: beta cell apoptosis inhibition. INS-1E cytokine-induced death, ATP luminescence, 48 h; percent of positive-control rescue, neutral wells zero. protection from apoptosis, % (concentration not given with the values). 0.8% of 300,000 active. AID 435005;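 active = all replicates at 75% or more, or half of them and the mean; inconclusive = half reach 75% but not the mean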;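 also: 0% = cytokine-treated negative control wells and 100% = positive control rescue; higher means more ATP so stronger rescue from cytokine killing; wells of about 40 µL received 100 nL stock; the first replicate is given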
MLL AF4-AF9 inh: inhibitors of human MLL-AF4/AF9 interaction; P42568; AlphaScreen, biotin-AF4 peptide binding to FLAG-AF9; inhibition, % at 10 µM; 0.47% of 350,000 active; AID 651704;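 active = every replicate reaching a set inhibition limit, whatever the replicate mean, cut at about 25% in these data; inconclusive = mean inhibition reaches that limit but some replicates miss it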;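 also: 0% = plate neutral control median and 100% = total signal loss; the record names both 10 and 1 µM as test concentration; the first replicate is given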
Target sequence (P42568 whole entry, looked up): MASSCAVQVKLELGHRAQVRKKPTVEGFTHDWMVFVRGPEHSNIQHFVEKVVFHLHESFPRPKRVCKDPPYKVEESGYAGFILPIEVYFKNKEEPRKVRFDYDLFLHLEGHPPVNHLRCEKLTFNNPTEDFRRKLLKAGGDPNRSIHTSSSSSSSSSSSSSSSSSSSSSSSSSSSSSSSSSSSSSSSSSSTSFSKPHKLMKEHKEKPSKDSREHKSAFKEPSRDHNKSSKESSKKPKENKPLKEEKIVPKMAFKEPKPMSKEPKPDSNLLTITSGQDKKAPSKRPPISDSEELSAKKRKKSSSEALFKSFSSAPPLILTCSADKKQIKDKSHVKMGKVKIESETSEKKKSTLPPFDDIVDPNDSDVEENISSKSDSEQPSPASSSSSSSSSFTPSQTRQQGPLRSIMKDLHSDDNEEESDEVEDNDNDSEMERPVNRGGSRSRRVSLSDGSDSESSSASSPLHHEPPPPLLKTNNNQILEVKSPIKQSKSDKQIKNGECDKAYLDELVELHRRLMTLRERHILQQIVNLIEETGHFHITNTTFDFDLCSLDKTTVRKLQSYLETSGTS
Vif TR-FRET: inhibitors of Vif binding to APOBEC3G peptide, primary screen, biochemical, TR-FRET, GST-Vif 1-94, biotin-A3G peptide, dose response retest (AID 1117319) | 0.57% of 260,000 active | TR-FRET GST-Vif / biotin-A3G peptide binding; higher % means a stronger effect; test concentration not given here; strong numbers were not always called active | inhibition, %, or IC50 in µM where a hit was titrated;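 active = above the screen mean plus three standard deviations and confirmed in dose response; inconclusive = results disagree or hit not tested in dose response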;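 also: Vif residues 1-94 fused to GST binding biotinylated APOBEC3G peptide 110-148; 0% = full assay without inhibitor and 100% = GST in place of GST-Vif; retest series ran down from 100 µM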
Ecoli rRNA inh OD600: recorded beside Ecoli rRNA inh, whose call it bears; OD600 change, %; measured here: OD600 growth;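 optical density of the mix in the first replicate; 0 = DMSO median and -100 = no signal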
Ecoli rRNA inh RFP: further read-out of Ecoli rRNA inh, marked with its call; RFP signal change, %; measured here: RFP humanized mutant strains;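 first replicate; 0 = DMSO median and -100 = no signal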
Active calls of the source: *. An excerpt; rates above refer to the full screens.

For CCOC(=O)C1CCN(C(=O)c2oc3ccc4c(c3c2C)C(O)CC2(CCCCC2)O4)CC1 (stereo unspecified) the results were Ecoli rRNA inh -14.0, T cruzi inh -7.6, A1 inh 0.8, RanGTP-Imp inh 5.0, Calb FLC -9.2, Beta cell apopt 5.2, MLL AF4-AF9 inh 1.0, Ecoli rRNA inh OD600 -34.1 and Ecoli rRNA inh RFP 4.8.
Screening C#CCSc1nnc(-c2ccc(O)cc2)o1 returned Ecoli rRNA inh -2.7, T cruzi inh -13.2, A1 inh 1.0, RanGTP-Imp inh -1.8, Calb FLC -16.1, Beta cell apopt -2.6, MLL AF4-AF9 inh 1.4, Ecoli rRNA inh OD600 -13.8 and Ecoli rRNA inh RFP -2.3.
For CCCC(=O)Nc1cc(-c2cn3cccnc3n2)ccc1OC the results were T cruzi inh -0.2, A1 inh 0.0, RanGTP-Imp inh 1.8, Calb FLC 3.2, Beta cell apopt -2.1 and Vif TR-FRET -2.6%.
Screening Cc1ccc(-n2c(SCC(=O)N3CCCCC3)nc(O)c(Cc3ccccc3)c2=O)cc1 returned Ecoli rRNA inh -2.9, T cruzi inh -6.0, A1 inh 0.9, RanGTP-Imp inh 4.4, Calb FLC -0.3, Beta cell apopt -2.5, MLL AF4-AF9 inh -1.3, Ecoli rRNA inh OD600 -9.6 and Ecoli rRNA inh RFP 1.4.
`CCOc1ncccc1C(=O)N(CC)CC(=O)NCc1ccc(F)cc1` gave Ecoli rRNA inh 2.6, T cruzi inh -10.1, A1 inh 0.2, RanGTP-Imp inh 7.3, Calb FLC -8.3, Beta cell apopt -4.8, MLL AF4-AF9 inh -24.6, Ecoli rRNA inh OD600 14.3 and Ecoli rRNA inh RFP 1.6.
CC(C)Cc1nn2c(=O)cc(CSCC(=O)Nc3ccccc3F)nc2s1 was read as Ecoli rRNA inh -3.5, T cruzi inh -14.4, A1 inh 0.6, RanGTP-Imp inh -0.4, Calb FLC 0.1, Beta cell apopt -1.2, MLL AF4-AF9 inh -5.0, Ecoli rRNA inh OD600 1.4 and Ecoli rRNA inh RFP -1.8.
Screening Cc1ccc(NS(=O)(=O)c2ccc3[nH]c(=O)oc3c2)cc1Cl returned A1 inh 0.0, Beta cell apopt 2.9, MLL AF4-AF9 inh -0.1 and Vif TR-FRET -12.2%.
For Clc1ccccc1OCCCCN1CCNCC1 the results were Ecoli rRNA inh 4.9, T cruzi inh 8.4, A1 inh -0.7, RanGTP-Imp inh 2.9, Calb FLC -2.7, Beta cell apopt 1.1, MLL AF4-AF9 inh 2.2, Ecoli rRNA inh OD600 -2.6 and Ecoli rRNA inh RFP -2.4.
Screening CC(C)[C@H](NS(=O)(=O)c1ccccc1)C(=O)OCC(=O)NCc1ccc2c(c1)OCO2 returned Ecoli rRNA inh 0.1, A1 inh -0.6, Beta cell apopt 1.4, MLL AF4-AF9 inh -3.3, Vif TR-FRET -1.7%, Ecoli rRNA inh OD600 7.6 and Ecoli rRNA inh RFP -6.8.
For CSc1ccccc1NC(=O)COc1ccc(Cl)cc1 the results were T cruzi inh 1.0, A1 inh 0.1, RanGTP-Imp inh 2.2, Calb FLC -10.0, Beta cell apopt -5.5 and Vif TR-FRET 32.6%.
Screening CCCCC(=O)Nc1sc2c(c1C(=O)OCC)CCC(C=O)=C2Cl returned T cruzi inh -4.5, A1 inh 0.9, RanGTP-Imp inh 3.4, Calb FLC 13.9, Beta cell apopt 3.6 and Vif TR-FRET inconclusive.
Screening Nc1nc2c(ncn2[C@H]2C[C@H](O)[C@@H](CO)O2)c(=O)[nH]1 returned T cruzi inh -4.7, A1 inh -0.2, RanGTP-Imp inh 2.1, Calb FLC -3.2, Beta cell apopt 2.6 and MLL AF4-AF9 inh 5.4.
`CCc1ccc(N2C(=O)/C(=C/c3cccs3)N(CC(=O)OC)C2=S)cc1` gave Ecoli rRNA inh 4.9, T cruzi inh 2.7, A1 inh 1.0, RanGTP-Imp inh -9.0, Calb FLC 8.5, Beta cell apopt -4.1, Vif TR-FRET 0.2%, Ecoli rRNA inh OD600 13.3 and Ecoli rRNA inh RFP 0.7.
Screening Cc1ccc2oc(C(=O)N(Cc3ccc(N(C)C)cc3)CC3CCCO3)c(C)c2c1 (stereo unspecified) returned Ecoli rRNA inh 5.8, T cruzi inh 23.8, RanGTP-Imp inh 0.4, Calb FLC -4.7, MLL AF4-AF9 inh 28.3*, Vif TR-FRET -5.9%, Ecoli rRNA inh OD600 -2.9 and Ecoli rRNA inh RFP 1.4.
Screening Cn1c(=O)c2nnn(/N=C(\c3ccccc3)C3CC3)c2n(C)c1=O returned T cruzi inh 5.0, A1 inh 0.2, RanGTP-Imp inh 3.4, Beta cell apopt 1.6 and Vif TR-FRET 14.9%.
CCOC(=O)Cc1csc(NC(=O)c2ccc(Cl)nc2)n1 was read as T cruzi inh -3.6, A1 inh 0.2, RanGTP-Imp inh -3.8, Calb FLC 14.4, Beta cell apopt 4.8 and Vif TR-FRET 0.4%.
`Cc1noc(/C=C/c2ccc(-c3ccccc3Cl)o2)c1[N+](=O)[O-]` gave T cruzi inh 21.3, A1 inh -0.2, RanGTP-Imp inh -86.5, Calb FLC -9.0, Beta cell apopt -1.3 and Vif TR-FRET 7.8%.
`O=C(O)c1cccc(NS(=O)(=O)/C=C/c2ccccc2)c1` gave T cruzi inh -9.6, A1 inh 1.3, RanGTP-Imp inh 0.4, Calb FLC -8.2, Beta cell apopt -3.2 and Vif TR-FRET 1.6%.
`C/C(CCC(C)C)=N\Nc1ccc(S(N)(=O)=O)cc1[N+](=O)[O-]` gave Ecoli rRNA inh 4.0, T cruzi inh 1.3, A1 inh 0.1, RanGTP-Imp inh 8.3, Calb FLC -34.7, Beta cell apopt -0.4, MLL AF4-AF9 inh 11.7, Vif TR-FRET -13.5%, Ecoli rRNA inh OD600 -3.8 and Ecoli rRNA inh RFP 1.4.
For CCCOc1c(Br)cc(C(=O)OCC(=O)NC2CC2)cc1OC the results were Ecoli rRNA inh -2.8, T cruzi inh -1.0, A1 inh 0.1, RanGTP-Imp inh 0.3, Calb FLC -4.6, Beta cell apopt 2.5, MLL AF4-AF9 inh 5.8, Vif TR-FRET 3.0%, Ecoli rRNA inh OD600 -3.4 and Ecoli rRNA inh RFP 0.3.
Screening O=C(NCCN1CCCC1)c1cc(-c2ccncc2)nc2ccc(S(=O)(=O)N3CCOCC3)cc12 returned T cruzi inh -1.3, A1 inh 0.3, RanGTP-Imp inh 4.4, Calb FLC -1.7, Beta cell apopt -3.1 and Vif TR-FRET 1.7%.
Cc1ccc(S(=O)(=O)NN2C(=O)/C(=C/c3cccc(F)c3)SC2=S)cc1 was read as Ecoli rRNA inh -10.8, T cruzi inh -5.7, A1 inh 0.8, RanGTP-Imp inh inconclusive, Calb FLC -4.9, Beta cell apopt 3.4, MLL AF4-AF9 inh -0.9, Ecoli rRNA inh OD600 -22.2 and Ecoli rRNA inh RFP -0.5.
For CCOC(=O)CN1N=C(/C=C/c2ccc(C)cc2)CCC1=O the results were T cruzi inh -17.2, A1 inh -0.5, RanGTP-Imp inh 1.2, Calb FLC 9.9, Beta cell apopt -5.3 and Vif TR-FRET 10.1%.
CCCCOc1ccc(NS(=O)(=O)c2ccc(-n3cnnn3)cc2)cc1 was read as Ecoli rRNA inh 9.2, T cruzi inh 6.6, A1 inh -0.1, RanGTP-Imp inh 5.1, Calb FLC -6.0, Beta cell apopt 5.7, MLL AF4-AF9 inh -19.0, Vif TR-FRET -2.2%, Ecoli rRNA inh OD600 13.1 and Ecoli rRNA inh RFP 3.6.
Cc1cccc(/C=N/NC(=O)C(C)Nc2cccc3ccccc23)n1 (stereo unspecified) was read as T cruzi inh -16.5, A1 inh -0.9, RanGTP-Imp inh 1.0, Calb FLC 15.5, Beta cell apopt -2.7 and Vif TR-FRET 10.3%.
Screening C=CCSc1nc2sc3c(c2c(=O)n1-c1ccc(C)cc1)CCN(C)C3 returned Ecoli rRNA inh -14.9, T cruzi inh 36.7, A1 inh -0.1, RanGTP-Imp inh -3.6, Calb FLC 5.5, Beta cell apopt 0.1, MLL AF4-AF9 inh -0.8, Vif TR-FRET 4.2%, Ecoli rRNA inh OD600 -14.1 and Ecoli rRNA inh RFP 1.9.
Screening COC(=O)Cc1ccc(NC(=S)NC2CC2)cc1 returned Ecoli rRNA inh 6.2, T cruzi inh -1.4, A1 inh -0.1, RanGTP-Imp inh -3.8, Calb FLC 12.6, Beta cell apopt 1.3, MLL AF4-AF9 inh 0.1, Vif TR-FRET -4.1%, Ecoli rRNA inh OD600 9.5 and Ecoli rRNA inh RFP 2.9.
CC1SC(c2ccc(Cl)cc2Cl)NC1=O (stereo unspecified) was read as T cruzi inh 3.6, A1 inh -0.3, RanGTP-Imp inh -2.8, Calb FLC -2.5, Beta cell apopt -6.8 and Vif TR-FRET 6.7%.
`CN(CC(=O)O/N=C(\N)c1ccc([N+](=O)[O-])cc1)S(=O)(=O)c1ccccc1` gave T cruzi inh 21.9, A1 inh 0.0, RanGTP-Imp inh 2.2, Calb FLC -15.8, Beta cell apopt 0.0 and Vif TR-FRET 24.7%.
Cc1ccc(-n2cc(CNC(C)c3cnn(C)c3)c(-c3ccc(F)cc3)n2)cc1 (stereo unspecified) was read as Ecoli rRNA inh -1.7, T cruzi inh 11.8, A1 inh 0.8, Calb FLC -25.9, Beta cell apopt -2.8, MLL AF4-AF9 inh 2.8, Vif TR-FRET 0.1%, Ecoli rRNA inh OD600 -2.8 and Ecoli rRNA inh RFP -0.9.
Screening COCCCNC(=O)CN(c1cc(C(F)(F)F)ccc1Cl)S(C)(=O)=O returned Ecoli rRNA inh 4.1, T cruzi inh -6.3, A1 inh 1.7, RanGTP-Imp inh 4.3, Calb FLC -5.5, Beta cell apopt 0.1, MLL AF4-AF9 inh -0.1, Vif TR-FRET inconclusive, Ecoli rRNA inh OD600 -10.5 and Ecoli rRNA inh RFP 20.3.
Screening O=C(/C=C/c1cccc([N+](=O)[O-])c1)N1CCN(C(=O)c2ccco2)CC1 returned T cruzi inh 0.0, A1 inh -0.2, RanGTP-Imp inh 8.7, Calb FLC 1.7, Beta cell apopt -0.3 and Vif TR-FRET 12.4%.
CCN(CC)c1ccc2cc(C=O)c(=O)oc2c1 was read as T cruzi inh -2.1, A1 inh 2.0, RanGTP-Imp inh 125.6*, Calb FLC 4.6, Beta cell apopt -2.1 and Vif TR-FRET 24.5%.
`C=CCN1C(=O)CSc2ccc(C(=O)OCC)cc21` gave T cruzi inh 1.0, A1 inh -0.4, RanGTP-Imp inh -2.0, Calb FLC 49.5, Beta cell apopt 0.4 and Vif TR-FRET 2.1%.
For COc1ccc(NC(=O)CS(=O)CC(=O)Nc2cccnc2)cc1 (stereo unspecified) the results were Ecoli rRNA inh 3.6, T cruzi inh 3.4, A1 inh -0.7, RanGTP-Imp inh -2.8, Calb FLC -4.2, Beta cell apopt -4.7, MLL AF4-AF9 inh -4.7, Ecoli rRNA inh OD600 9.8 and Ecoli rRNA inh RFP -2.8.
